PKD1 inh: PKD1 (human) kinase inhibition | Q15139 | PKD1 kinase fluorescence polarization assay | inhibition, %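 (about 10 µM by stock and volumes)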 | 0.056% of 200,000 active | AID 797;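 active = inhibition of 50% or more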;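 note: controls were vehicle for no effect and a reference inhibitor for full effect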
RGS16-Gao HTS: RGS16-Galphao interaction regulator (human). 0.38% of 220,000 active. O15492+P09471. binding response (% of control), % at 10 µM. bead-based flow cytometry RGS16-Galphao binding, fluorescence; actives lie on both sides;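 active = below 25% or above 175%, edge rows of some plates excepted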;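 note: Galphao activated by GDP with aluminum fluoride before binding; 100% = wells without compound and 0% = beads without RGS; some results beyond the cut were filed as inactive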
Target sequence (O15492 whole entry, looked up): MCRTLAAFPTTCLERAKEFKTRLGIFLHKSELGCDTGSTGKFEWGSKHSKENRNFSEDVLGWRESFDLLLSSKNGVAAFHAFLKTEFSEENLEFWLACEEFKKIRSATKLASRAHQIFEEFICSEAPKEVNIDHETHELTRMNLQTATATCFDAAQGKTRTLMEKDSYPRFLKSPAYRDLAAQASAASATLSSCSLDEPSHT
Target sequence (P09471 whole entry, looked up): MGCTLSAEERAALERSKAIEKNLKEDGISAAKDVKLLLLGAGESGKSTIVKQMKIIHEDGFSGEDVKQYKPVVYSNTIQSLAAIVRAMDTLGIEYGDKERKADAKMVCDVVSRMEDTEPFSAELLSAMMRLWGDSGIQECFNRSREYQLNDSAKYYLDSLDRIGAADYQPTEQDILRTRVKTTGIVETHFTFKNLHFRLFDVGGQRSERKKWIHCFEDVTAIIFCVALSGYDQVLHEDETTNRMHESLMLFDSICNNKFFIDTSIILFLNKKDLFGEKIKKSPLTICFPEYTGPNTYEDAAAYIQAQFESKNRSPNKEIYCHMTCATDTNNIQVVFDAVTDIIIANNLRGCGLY
INS promoter inh: TRM-6 insulin promoter activity inhibition; inhibition, % at 2 µM; AID 1273; 0.9% of 130,000 active; TRM-6 cells (human fetal islet line), insulin promoter-eGFP reporter, imaging; reporter expression induced with tamoxifen;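 active = inhibition above the mean plus 3 SD, with well images judged a real hit on visual review, cut at about 60% in these data, passing the limit was not always enough; inconclusive = inhibition over the cutoff but images rejected on review; inactive = inhibition not above the cutoff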
GALR2 agonist: GALR2 (human) receptor agonism | O43603 | GALR2-expressing cells, agonist activation read-out | activation, %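 (tested at 5 µM)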 | 0.48% of 140,000 active;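 active = above mean plus 3 SD of all compounds, about 5% in these data, not always enough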;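 note: 0% = vehicle buffer wells and 100% = reference agonist at full effect; tested in CHO reporter cells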
Target sequence (O43603 whole entry, looked up): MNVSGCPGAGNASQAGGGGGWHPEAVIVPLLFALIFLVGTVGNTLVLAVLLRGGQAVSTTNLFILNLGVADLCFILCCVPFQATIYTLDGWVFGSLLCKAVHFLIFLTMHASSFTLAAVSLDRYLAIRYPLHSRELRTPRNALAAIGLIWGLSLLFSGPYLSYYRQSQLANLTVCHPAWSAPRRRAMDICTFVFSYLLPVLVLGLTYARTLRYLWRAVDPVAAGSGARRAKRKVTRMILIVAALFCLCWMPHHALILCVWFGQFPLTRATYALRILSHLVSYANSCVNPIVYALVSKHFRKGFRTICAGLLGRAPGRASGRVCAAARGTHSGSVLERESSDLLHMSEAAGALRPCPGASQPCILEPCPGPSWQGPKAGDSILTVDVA
HSV augment: increases HSV replication in cells | HSV replication augmentation in cells, fold increase | maximum fold increase | 0.005% of 220,000 active | AID 1956;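 active = peak rise of 1.5-fold or more in the series; inconclusive = self-fluorescent or not available for retest; tested in PC3 cells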;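 note: first round at 10 µM; read as green reporter fluorescence; hits show the peak of a series up to 25 µM; 1 = signal of infected wells without compound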
INS promoter inh cell count: recorded beside INS promoter inh, whose call it bears; normalized cell count, %; measured here: cell count, toxicity; reference of the scale not given here;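 cells exposed to compound for 48 h; stained nuclei by imaging scaled within each plate; lower means fewer cells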
HSV augment primary fold: second read-out of HSV augment, no call of its own (marks repeat the call); fold increase; compound at 10 µM; measured here: primary screen fold increase 10 uM; tested in PC3 cells;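 GFP signal in the first replicate; 1 = infected wells without compound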
An asterisk follows results filed as active; i = inactive; ? = inconclusive; . = not tested or not shown; & = joins results of further samples. A portion of the library; rates above refer to the full screens.

SMILES | PKD1 inh | RGS16-Gao HTS | INS promoter inh | INS promoter inh cell count | GALR2 agonist | HSV augment | HSV augment primary fold
CCn1cc(C(=O)c2cccs2)c2ccccc21 | -9 | 95 | 64 | 104 | -2.2 | i | 0.84
Cc1cccc(OCC(=O)N2CCN(Cc3ccc4c(c3)OCO4)CC2)c1 | 1 | 99 | 27 | 111 | . | i | 0.92
CCC[N+]12CCC(CC1)C(=C(c1ccccc1)c1ccccc1)C2 | -1 | 101 | 7 | 122 | -1.0 | i | 1
CC1CCCC(C2(O)C(=O)Nc3ccccc32)C1=O (centres undefined) | -1 | 100 | -4 | 93 | -3.4 | i | 0.96
C=CCn1c(O)c(C(C)=NCC2CCCO2)c(=O)[nH]c1=O (centres undefined) | . | 105 | . | . | . | i | 0.96
CCOC(=O)[C@@]1(C#N)C(c2ccc(Cl)c(Cl)c2)[C@H](C(N)=O)N2C=C(C(C)=O)C=C[C@H]21 (some centres undefined) | -7 | 96 | 22 | 155 | -2.9 | i | 1.1
CCn1ccnc1CN1CCCC(C(=O)c2ccc(SC)cc2)C1 (centres undefined) | 6 | 108 | . | . | . | i | 1
CCN(CC)c1ccc(CNCCc2ccc(F)cc2)cc1 | -6 | 102 | . | . | . | i | 0.81
Cc1cc(C)cc(NC(=S)NC2CC3CCCC(C2)N3Cc2cccs2)c1 (centres undefined) | 2 | 106 | . | . | -2.6 | i | 1.1
COc1ccc(NC(=O)N2CCC3(CC2)OCCO3)cc1OC | -9 | 109 | 10 | 92 | -0.7 | i | 0.98
CCCCCCn1c(=O)c(C(=O)Nc2nc(CC(=O)OCC)cs2)c(O)c2ccccc21 | . | 108 | . | . | . | i | 1.1
Cc1ccc(/C=C2/C(=O)NC(=O)N(Cc3ccc(F)cc3)C2=O)o1 | . | 99 | . | . | . | i | 0.64
CC(=NCCCn1ccnc1)c1c(O)n(C)c(=O)n(C)c1=O | 3 | 98 | 30 | 107 | -1.5 | i | 0.95
COc1ccc(Cn2c(O)c(C=NCCCn3ccnc3)c(=O)[nH]c2=O)cc1 | 4 | 99 | -14 | 74 | -3.4 | i | 1
COc1cc(/C=C2\C(=O)NC(=O)N(c3ccccc3)C2=O)cc(OC)c1O | 4 | 98 | . | . | -0.8 | i | 0.95
CCn1ccnc1CN1CCCC(C(=O)c2cccc(C(F)(F)F)c2)C1 (centres undefined) | -2 | 95 | . | . | . | i | 1
OCCN1C2CCC1CC(O)(c1ccc(F)cc1)C2 (centres undefined) | -1 | 104 | -4 | 137 | -0.2 | i | 1
Cc1ccccc1OP(N)(=O)Oc1ccccc1C | -10 | 103 | . | . | . | i | 0.93
CCCCN1C(=O)NC(=O)C2(Cc3cc(C)ccc3N(C)C2)C1=O (centres undefined) | -1 | 101 | 44 | 155 | -0.4 | i | 0.84
COc1ccc(-n2c(O)c(C(C)=NCCCn3ccnc3)c(=O)[nH]c2=O)cc1 | 8 | 103 | 26 | 76 | -0.7 | i | 1
COc1ccccc1-n1c(CNCC2CCCO2)nc2ccccc2c1=O (centres undefined) | 4 | 100 | 17 | 151 | -0.2 | . | .
COc1ccc(OC)c(NC2=NCCS2)c1 | 1 | 102 | 29 | 109 | . | i | 0.95
Cc1c(N=Nc2c(O)n(-c3ccc(Br)cc3)c(=O)[nH]c2=O)c(=O)n(-c2ccccc2)n1C | . | 101 | . | . | . | i | 1.2
Cc1cccn2c(=O)c3c(nc12)N1CCc2ccccc2C1C1(C3)C(=O)NC(=O)N(C)C1=O (centres undefined) | 3 | 107 | -14 | 56 | -0.3 | i | 0.86
COc1ccc(CCNCc2ccccn2)cc1OC | -10 | 95 | -60 | 108 | -1.8 | i | 1
(more compounds)
SMILES | PKD1 inh | RGS16-Gao HTS | INS promoter inh | INS promoter inh cell count | GALR2 agonist | HSV augment | HSV augment primary fold
COc1ccc(CC(=O)N2CCN(C)CC2)cc1 | 1 | 132 | -6 | 99 | -2.2 | i | 1
O=C1NC(=O)C(=Cc2ccc(N3CCOCC3)cc2)C(=O)N1 | -4 | 101 | . | . | . | i | 1
CC(=NCCCn1ccnc1)c1c(O)n(C2CCCCC2)c(=O)[nH]c1=O | . | 100 | . | . | . | i | 0.91
O=C(c1ccc2c(c1)OCO2)C1CCCN(Cc2ccccn2)C1 (centres undefined) | 1 | 112 | 7 | 79 | . | i | 0.99
C=CCn1c(=O)c(C=Nc2cccnc2Cl)c(O)n(CCCC)c1=O | -3 | 103 | -7 | 140 | -0.7 | . | .
Cc1cccc(N2C(=O)/C(=C/N3CCN(C(=O)c4ccco4)CC3)C(=O)NC2=S)c1 | -5 | 97 | -26 | 124 | -1.6 | i | 1.1
O=C1/C(=C\c2cc3c(cc2Br)OCO3)N2CCC1CC2 | -3 | 97 | 12 | 75 | -2.1 | i | 0.98
CC(=NCCCN1CCOCC1)c1c(O)n(-c2ccccc2C)c(=O)[nH]c1=O | -9 | 100 | 30 | 77 | -1.8 | i | 0.96
Cc1cc(OC(=O)c2ccco2)c2c3c(c(=O)oc2c1)CCCC3 | -7 | 93 | 51 | 112 | -0.2 | i | 1.2
O=C(Cn1nc(-c2ccccc2)ccc1=O)N1CCC2(CC1)OCCO2 | -3 | 101 | -21 | 78 | . | i | 0.94
O=C(C1CC(c2ccccc2O)=NO1)N1CCC2(CC1)OCCO2 (centres undefined) | -7 | 100 | -33 | 109 | -2.9 | i | 0.75
CC(C)C[C@H]1C(=O)N2CCCC2[C@]2(O)O[C@](NC(=O)[C@@H]3C=C4c5cccc6[nH]cc(c56)CC4N(C)C3)(C(C)C)C(=O)N12 (some centres undefined) | 1 | 103 | -145 | 81 | 1.3 | ? | .
CCOP(=O)(OCC)C(O)c1cccc([N+](=O)[O-])c1 (centres undefined) | -6 | 119 | -18 | 50 | . | i | 1
O=c1[nH]c(=S)n(C2CC2)c(O)c1/C=N/Nc1cccc2ccccc12 | -4 | 102 | . | . | -0.2 | ? | .
O=C(CCNS(=O)(=O)c1ccccc1)Nc1ccc(Cl)cc1C(=O)c1ccccc1 | 9 | 96 | . | . | 0.0 | i | 0.95
CCN1CCC2(CCNC2)C1 (centres undefined) | 9 | 108 | . | . | -1.5 | i | 0.87
C=CCN1C(=O)/C(=C/c2cc(C)n(-c3cccnc3)c2C)C(=O)NC1=S | -11 | 115 | 11 | 62 | -1.9 | . | .
O[C@@H]1CCCC[C@H]1N1CCC(c2ccccc2)CC1 | -4 | 107&98 | . | . | -1.7 | i | 0.98
CCOC(=O)C1(CCc2ccccc2)CCN(C2CCSCC2)CC1 | -5 | 102 | -6 | 95 | . | i | 0.9
CC(=NCCC(c1ccccc1)c1ccccc1)c1c(O)n(C)c(=O)n(C)c1=O | 2 | 361 | . | . | -1.1 | i | 1
COc1ccc(CN2C(=O)NC(=O)/C(=C\c3cc(OC)c(OC)c(OC)c3)C2=O)cc1 | 8 | 101 | -18 | 61 | . | i | 0.92
CCOC(=O)C(NC(=O)C(Cc1ccc(N(CCCl)CCCl)cc1)NC(C)=O)C(C)C (centres undefined) | 0 | 106 | . | . | . | i | 1.1
CSCCC(N=Cc1c(O)n(-c2ccc(Br)cc2)c(=O)[nH]c1=O)C(=O)OC(C)(C)C (centres undefined) | 6 | 100 | -3 | 99 | -0.6 | i | 0.91
COC(=NC1CCCC1)C(O)c1c[nH]c2ccccc12 (centres undefined) | 4 | . | i | 33 | -2.6 | i | 0.84
O=C(c1cccc(Cl)c1)C1CCCN(Cc2cccc3cnccc23)C1 (centres undefined) | 9 | 95 | . | . | . | i | 0.96

Already shown: an excerpt of the list.
SMILES | PKD1 inh | RGS16-Gao HTS | INS promoter inh | INS promoter inh cell count | GALR2 agonist | HSV augment | HSV augment primary fold
COc1ccc(CC(=O)N2CCN(C)CC2)cc1 | 1 | 132 | -6 | 99 | -2.2 | i | 1
O=C1NC(=O)C(=Cc2ccc(N3CCOCC3)cc2)C(=O)N1 | -4 | 101 | . | . | . | i | 1
CC(=NCCCn1ccnc1)c1c(O)n(C2CCCCC2)c(=O)[nH]c1=O | . | 100 | . | . | . | i | 0.91
O=C(c1ccc2c(c1)OCO2)C1CCCN(Cc2ccccn2)C1 (centres undefined) | 1 | 112 | 7 | 79 | . | i | 0.99
C=CCn1c(=O)c(C=Nc2cccnc2Cl)c(O)n(CCCC)c1=O | -3 | 103 | -7 | 140 | -0.7 | . | .
Cc1cccc(N2C(=O)/C(=C/N3CCN(C(=O)c4ccco4)CC3)C(=O)NC2=S)c1 | -5 | 97 | -26 | 124 | -1.6 | i | 1.1
O=C1/C(=C\c2cc3c(cc2Br)OCO3)N2CCC1CC2 | -3 | 97 | 12 | 75 | -2.1 | i | 0.98
CC(=NCCCN1CCOCC1)c1c(O)n(-c2ccccc2C)c(=O)[nH]c1=O | -9 | 100 | 30 | 77 | -1.8 | i | 0.96
Cc1cc(OC(=O)c2ccco2)c2c3c(c(=O)oc2c1)CCCC3 | -7 | 93 | 51 | 112 | -0.2 | i | 1.2
O=C(Cn1nc(-c2ccccc2)ccc1=O)N1CCC2(CC1)OCCO2 | -3 | 101 | -21 | 78 | . | i | 0.94
O=C(C1CC(c2ccccc2O)=NO1)N1CCC2(CC1)OCCO2 (centres undefined) | -7 | 100 | -33 | 109 | -2.9 | i | 0.75
CC(C)C[C@H]1C(=O)N2CCCC2[C@]2(O)O[C@](NC(=O)[C@@H]3C=C4c5cccc6[nH]cc(c56)CC4N(C)C3)(C(C)C)C(=O)N12 (some centres undefined) | 1 | 103 | -145 | 81 | 1.3 | ? | .
CCOP(=O)(OCC)C(O)c1cccc([N+](=O)[O-])c1 (centres undefined) | -6 | 119 | -18 | 50 | . | i | 1
O=c1[nH]c(=S)n(C2CC2)c(O)c1/C=N/Nc1cccc2ccccc12 | -4 | 102 | . | . | -0.2 | ? | .
O=C(CCNS(=O)(=O)c1ccccc1)Nc1ccc(Cl)cc1C(=O)c1ccccc1 | 9 | 96 | . | . | 0.0 | i | 0.95
CCN1CCC2(CCNC2)C1 (centres undefined) | 9 | 108 | . | . | -1.5 | i | 0.87

Next compounds.
SMILES | PKD1 inh | RGS16-Gao HTS | INS promoter inh | INS promoter inh cell count | GALR2 agonist | HSV augment | HSV augment primary fold
C=CCN1C(=O)/C(=C/c2ccc3c(c2)CCCN3CCC)C(=O)NC1=S | 17 | 98 | -21 | 161 | -1.3 | i | 1.1
O=C1CN=C(c2ccc(Cl)cc2)c2oc3ccccc3c2N1 | . | 104 | . | . | . | i | 0.88
Nc1ccccc1C(=O)OCCOc1ccccc1 | -13 | 100 | . | . | -1.3 | i | 0.88
Cc1cccc(-n2c(O)c(/C=N/Nc3nc4c(c(=O)n(C)c(=O)n4C)n3C)c(=O)[nH]c2=S)c1 | -7 | 100 | -35 | 92 | 0.3 | ? | .
Cc1cccc(OP(=O)(Nc2cccnc2)Oc2cccc(C)c2)c1 | 1 | 60 | -27 | 70 | 0.9 | i | 1.2
NP(=O)(OCC(F)(F)F)Oc1ccccc1 (centres undefined) | 8 | . | -38 | 98 | -2.9 | i | 1.1
CC(=Nc1ccc2c(c1)CCC2)c1c(O)n(-c2ccccc2)c(=O)[nH]c1=O | . | 99 | . | . | . | i | 0.99
Cc1cc(C=O)c(C)n1C1CC1 | -4 | 99 | . | . | . | i | 1
CCN(CC)C(=O)c1ccc(NC(=O)COc2ccccc2F)cc1 | -2 | 98 | . | . | . | i | 1.1
C=Cn1ccnc1P(=S)(c1nccn1C=C)c1nccn1C=C | 0 | 104 | -18 | 87 | -0.6 | i | 0.96
O=P(C(c1c[nH]c2ccccc12)N1CCOCC1)(N1CCOCC1)N1CCOCC1 (centres undefined) | 2 | 86 | 14 | 157 | -2.6 | i | 0.86
O=[N+]([O-])c1ccc(N2CCNCC2)cc1NCc1ccco1 | -6 | 139 | -8 | 54 | -2.0 | i | 0.98
CCN(CC)c1ccc(N=Cc2c(O)n(Cc3ccco3)c(=O)[nH]c2=O)cc1 | . | 98 | . | . | . | ? | .
O=C1NC(=O)C(CCc2ccccn2)(Cc2cccc(Cl)c2Cl)C(=O)N1c1ccc(Br)cc1 (centres undefined) | 8 | 113 | 6 | 127 | -0.8 | i | 0.76
O=C(O)CN1C(=O)CN=C(c2ccccn2)c2cc(Cl)ccc21 | . | 112 | . | . | . | i | 1
CC(=NCc1ccco1)c1c(O)n(Cc2ccccc2)c(=O)[nH]c1=O | -2 | 100 | -43 | 97 | -3.8 | i | 0.98
C=CCn1c(O)c(/C=N/NC(=O)CCCC)c(=O)[nH]c1=S | -6 | 101 | . | . | . | i | 0.81
O=C1NC(=O)N(c2ccc3c(c2)OCO3)C(=O)/C1=C\c1ccsc1 | . | 90 | . | . | . | i | 1

Screening results as filed in PubChem BioAssay.
